Source: PubChem BioAssay
UCH37 DUB inh = blocks the human deubiquitinase UCH37. purified proteasome/UCH37, Ub-AMC cleavage fluorescence. Q9Y5K5. 330,000 compounds, 0.33% hits. inhibition, % (concentration not given with the values);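 active means mean of two replicates above 20%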;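 further: 0% = compound-free wells with enzyme and 100% = wells lacking proteasome; stock transfer was 100 nL into about 20 µL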
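Test system – human UCH37 enzyme supplied as purified proteasome complex · Incubation – 30 min preincubation with enzyme, 25 min cleavage at room temperature · Detection – AMC fluorescence from Ub-AMC cleavage, excitation 355 nm, emission 460 nm · Benchmarks – no-proteasome wells (full inhibition) and compound-free wells (no inhibition)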
Ecoli growth = blocks Escherichia coli growth. OD600, 23 h; stronger effect = lower value. OD600 absorbance (test concentration not listed). 330,000 compounds, 0.21% hits. AID 1053175;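 active means OD600 absorbance below the run mean of sample wells minus 3.6 SD, in any replicate, cut at about 0.56 in these data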;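 further: stock transfer was 300 nL into about 60 µL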
HNF4A DNA FP = change in binding of human HNF4 alpha to DNA. HNF4a-FITC DNA binding, fluorescence polarization, 1 h. P41235. 360,000 compounds, 0.3% hits. activity change, % at 10 µM. AID 1224865; in the data active means activity change above about 30%, passing the limit was not always enough;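 further: controls were the assay level and a saturating level of protein; the project sought stronger binding though the title names inhibitors; some compounds called inactive have numbers as strong as hits; positive values seem to mean higher polarization but the record does not say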
Target sequence (P41235 whole entry, looked up): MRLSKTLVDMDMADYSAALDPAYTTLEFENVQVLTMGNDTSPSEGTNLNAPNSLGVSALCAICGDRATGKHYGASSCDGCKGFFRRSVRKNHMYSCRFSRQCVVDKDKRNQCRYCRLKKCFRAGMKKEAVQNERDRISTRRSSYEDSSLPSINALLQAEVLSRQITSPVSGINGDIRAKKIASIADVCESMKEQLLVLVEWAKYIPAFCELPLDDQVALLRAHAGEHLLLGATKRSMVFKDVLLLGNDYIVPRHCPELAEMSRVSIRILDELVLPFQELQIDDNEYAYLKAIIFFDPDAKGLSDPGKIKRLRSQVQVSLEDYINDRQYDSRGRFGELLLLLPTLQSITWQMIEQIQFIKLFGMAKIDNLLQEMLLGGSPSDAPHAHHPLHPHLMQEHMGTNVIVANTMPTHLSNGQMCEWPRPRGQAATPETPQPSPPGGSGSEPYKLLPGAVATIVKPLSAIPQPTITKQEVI
ALR inh = inhibitors of human sulfhydryl oxidase ALR; purified ALR, DTT oxidation, H2O2 HRP-luminol luminescence; inhibition, % (test concentration not listed); 290,000 compounds, 3.8% hits;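 active means mean and each replicate at 75% or more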;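 further: stock transfer was 7.5 nL into about 7.5 µL; 0% = neutral wells and 100% = wells with inactivated enzyme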
Target sequence (P55789 whole entry, looked up): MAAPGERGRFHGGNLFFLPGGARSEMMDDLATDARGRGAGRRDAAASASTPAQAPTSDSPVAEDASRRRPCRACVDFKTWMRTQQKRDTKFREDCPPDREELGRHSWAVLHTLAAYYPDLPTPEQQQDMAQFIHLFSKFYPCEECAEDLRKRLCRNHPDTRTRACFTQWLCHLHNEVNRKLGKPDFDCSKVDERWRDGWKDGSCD
FGF22 binding = FGF22 (human) thermal shift binding; recombinant FGF22 thermal shift, SYPRO orange fluorescence; percent of sucrose octasulfate shift, DMSO zero; calls only at 9.99 µM; 340,000 compounds, 1.5% hits; AID 651658;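 active means melting point raised past a set limit in the mean and every replicate; three in four hits are not shown here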
Beta2AR agonist = activates human beta-2 adrenergic receptor causing internalization | 340,000 compounds, 0.43% hits | Am2.2-beta2AR cells, FAP receptor internalization, flow cytometry; reference of the scale not given here | response, % (test concentration not listed) | P07550;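 active means response above a set limit, near 3 SD of response in nonfluorescent compounds, cut at about 42% in these data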;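 further: stock transfer was 100 nL into about 11 µL; a reference agonist was the positive control; negative values mostly stem from fluorescent compounds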
Target sequence (P07550 whole entry, looked up): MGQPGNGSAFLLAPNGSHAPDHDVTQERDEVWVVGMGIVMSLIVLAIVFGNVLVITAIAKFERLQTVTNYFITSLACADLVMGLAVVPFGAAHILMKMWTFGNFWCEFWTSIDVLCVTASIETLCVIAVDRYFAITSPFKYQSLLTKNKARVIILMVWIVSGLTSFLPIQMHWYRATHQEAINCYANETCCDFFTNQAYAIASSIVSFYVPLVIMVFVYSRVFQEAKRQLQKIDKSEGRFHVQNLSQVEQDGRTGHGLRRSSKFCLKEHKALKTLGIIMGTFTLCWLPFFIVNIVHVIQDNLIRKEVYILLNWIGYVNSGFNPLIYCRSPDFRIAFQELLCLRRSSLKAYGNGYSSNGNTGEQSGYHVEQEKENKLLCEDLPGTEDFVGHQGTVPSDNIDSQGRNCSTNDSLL
LANA-H2A inh = blocks KSHV LANA binding to histone H2A/H2B; Q9QR71; cell-free LANA-H2A/H2B peptide, fluorescence polarization; inhibition, % (no concentration beside the values); 320,000 compounds, 0.6% hits; AID 2629; in the data active means inhibition mostly above about 10%, no sharp cut-off; inactive means mostly below about 6.7%;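 further: stock transfer was 7.5 nL into about 10 µL; 0% = median of vehicle wells and 100% = median of positive control wells; one replicate is shown; the record names a cut of 25% in any replicate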
The depositor's hits bear a star; i = inactive; x = no result given; + = active, no number. These rows are one share of the data; the hit share may differ from the screen's.

UCH37 DUB inh	Ecoli growth	HNF4A DNA FP	ALR inh	FGF22 binding	Structure	Beta2AR agonist	LANA-H2A inh
1.8	0.71	3.6	2.5	i	Cc1cc(NC(=O)C(C)SCC(=O)OCC(=O)N(Cc2ccccc2)C(C)(C)C)no1 (centres undefined)	2.5	-5.7
2.8	0.757	-0.1	96.5*	i	Cc1cccc(CSC2=NCCN2C(=O)c2ccco2)c1	7.9	0.7
4.5	0.717	5.0	3.9	x	O=C(NCCc1ccncc1)Nc1ccccc1Cl	-0.5	-5.7
-1.7	0.715	-0.8	x	x	Cc1ccnc(Sc2nc3c(c(=O)[nH]c(=O)n3C)n2CCCc2ccccc2)n1	-5.4	1.5
0.3	0.653	-0.3	0.3	x	c1ccc(C2C3=C(CCCC3)Nc3ncnn32)cc1 (centres undefined)	0.7	2.0
3.2	0.68	2.1	1.5	x	CN1CCN(C(=S)Nc2ccc(Oc3ccccc3)cc2)CC1	-13.2	3.7
-0.1	0.68	2.9	-35.8	i	COC(=O)c1cc(C(=O)N(Cc2ccccc2)c2ccccn2)cc([N+](=O)[O-])c1	-0.2	-3.7
-16.7	0.686	1.9	-2.3	i	COc1cc2c(cc1OC)C(Nc1ccc(S(N)(=O)=O)cc1)=NC(C)(C)C2	11.2	2.8
1.0	x	1.6	6.6	x	CC(C)(C)C#CCn1c(/C=[N+](\[O-])C2CCCCC2)nc2ccccc21	-13.1	-0.6
-6.7	0.735	2.7	-4.3	i	COc1ccccc1N1CCN(C(=O)CSc2nc3ccccc3nc2N2CCC(C)CC2)CC1	3.8	-4.3
x	x	13.0	-7.1	i	COc1ccc(/C=N/Nc2ncnc3c2[nH]c2ccc(C)cc23)c(OC)c1OC	10.2	0.0
2.5	x	-1.9	-0.5	i	COc1ccc([C@H]2CC(=O)C=C(c3cc(C=O)ccc3OC)C2)cc1OC	-4.4	-2.8
1.8	0.668	3.4	x	i	COc1ccc(OC)c(NC2c3ncccc3C(=O)N2Cc2ccco2)c1 (centres undefined)	-5.1	x
x	x	2.7	16.0	i	Cc1ccc(C)c(S(=O)(=O)N2CCCC2CNC(=O)C(=O)NCc2ccccc2)c1 (centres undefined)	-12.2	0.6
2.2	0.719	5.6	-6.4	x	O=C(NCC(O)c1ccccc1)c1cccc(S(=O)(=O)N2CCOCC2)c1 (centres undefined)	-4.8	1.8
0.5	0.74	0.4	5.3	i	COc1ccc(NC(=O)C2CC(=O)n3c(nc4ccccc43)N2)cc1 (centres undefined)	4.5	-3.3
4.2	0.778	6.6	x	i	Cc1ccc2nc(NC(=O)CSc3ncnc4c3oc3ccccc34)sc2c1	1.6	x
4.5	0.741	4.3	-11.5	x	CCCCC(=O)N1CCCC(C(=O)OCC)C1 (centres undefined)	2.5	6.9
1.2	0.673	3.9	0.9	i	O=C(Oc1cccc(NC2=NS(=O)(=O)c3ccccc32)c1)c1cccnc1	-11.3	-2.5
2.5	0.596	-5.2	97.1*	i	O=C(O)/C(=C\c1ccco1)NC(=O)c1ccccc1	5.2	2.0
0.1	0.693	0.4	-6.9	i	O=c1cc(N2CCOCC2)cnn1-c1ccccc1	2.2	1.0
7.2	0.718	-0.5	-29.9	x	O=C1NC(Cc2c[nH]c3ccccc23)C(=O)N1c1ccc(F)cc1 (centres undefined)	-0.8	0.4
-0.5	0.649	-1.2	-11.4	i	CCCCn1nnnc1NCc1cc(OC)c(OC)c(OC)c1	-0.1	3.9
0.2	0.7	1.4	4.3	i	CC(C)=C1SC(N2CCN(c3ccc(Cl)cc3)CC2)=NC1=O	0.4	2.7
3.0	0.664	-0.5	-4.2	i	COC(=O)COc1ccc(NC(=O)c2ccco2)cc1	-1.8	7.4
1.4	0.776	1.2	1.7	x	CC(=O)Nc1cc(NC(=O)CCCC(=O)O)ccc1Cl	-8.1	0.5
2.6	0.702	2.1	-0.4	x	COCCCNC(=O)c1ccc(CS(=O)(=O)Cc2cccc(C)c2)o1	-5.8	-1.1
-0.8	0.609	-1.6	x	i	Cc1ccc2c(c1)c(C1=c3ccccc3=NC1=O)c(O)n2C	-2.5	2.2
-41.4	0.673	1.8	-10.8	x	CCC(C)n1c(C)nc2c(c1=O)c1nc3ccccc3nc1n2CCC1=CCCCC1 (centres undefined)	15.9	-0.6
2.7	0.697	1.8	3.7	x	COC(=O)COn1c(SCC(=O)OC)nc2ccccc2c1=O	21.4	-6.1

An excerpt from above in order of their number in Beta2AR agonist, descending:
Compound	Beta2AR agonist
Cc1cc(NC(=O)C(C)SCC(=O)OCC(=O)N(Cc2ccccc2)C(C)(C)C)no1 (centres undefined)	2.5
CC(=O)Nc1cc(NC(=O)CCCC(=O)O)ccc1Cl	-8.1
CN1CCN(C(=S)Nc2ccc(Oc3ccccc3)cc2)CC1	-13.2

Additional compounds
UCH37 DUB inh	Ecoli growth	HNF4A DNA FP	ALR inh	FGF22 binding	Structure	Beta2AR agonist	LANA-H2A inh
1.8	0.684	1.2	-4.9	i	CSCC[C@H](NC(=O)N1CCn2c1nc1ccccc12)C(=O)N[C@H](Cc1ccccc1)C(=O)O	1.3	-1.4
0.2	0.682	-25.9	-11.3	i	CSCCC(NC(=O)COc1ccccc1)C(=O)OCc1ccc([N+](=O)[O-])cc1 (centres undefined)	3.2	-3.3
0.0	0.692	1.4	-7.8	x	O=C(Cn1cc(-c2nnnn2-c2ccc(Cl)cc2)c(=O)c2ccccc21)c1ccccc1	-12.2	1.4
1.9	0.673	0.2	x	i	COc1cc(C(=O)COC(=O)c2c(C)noc2C)cc(OC)c1OC	7.7	-4.5
-1.1	0.691	0.6	-3.0	i	COC(=O)c1ccc(S(=O)(=O)N2Cc3ccccc3C2)cc1	1.4	2.6
0.7	0.661	2.5	-9.0	i	COc1ccc(-c2nnnn2C(C)C)cc1	-2.4	3.4
3.3	0.71	-4.9	3.3	i	CCCCCNC(=O)c1ccc2c(=O)n(CCCOCC)c(=S)[nH]c2c1	-4.7	2.1
7.2	0.712	9.1	-12.8	+	Cc1nc2ccccc2c2oc(C(=O)NCc3ccc4c(c3)OCO4)cc12	3.8	3.7
-0.9	0.721	-2.8	-4.0	i	CCOCCCNC(=O)CN1C(=O)COc2ccc(S(=O)(=O)N3CC(C)CC(C)C3)cc21 (centres undefined)	-3.4	2.6
5.6	0.663	0.6	-9.2	i	O=C(NCCN1CCOCC1)C12CC3CC(C1)CC(c1ccccc1)(C3)C2	0.8	1.8
-11.1	0.696	-2.7	4.8	x	Cc1ccc(C(=O)Oc2coc(CSc3nnc(NC(=O)c4cccs4)s3)cc2=O)cc1	-9.4	2.1
0.1	0.668	-0.2	-1.9	i	CC(=O)Nc1ccc(NC(=O)c2ccc(COc3ccccc3Br)o2)cc1	1.3	3.9
5.0	0.665	-1.9	1.6	x	CCC(Oc1ccccc1)C(=O)Nc1ccc(S(=O)(=O)NCC2CCCO2)cc1 (centres undefined)	-1.9	0.9
1.3	0.719	3.5	1.1	i	CN(C)S(=O)(=O)c1cc(NC(=O)Cn2ccsc2=N)ccc1Cl	2.9	4.2
2.8	0.692	1.8	19.8	i	COc1ccc(C(c2nnnn2C(C)(C)C)N2CCN(C(=O)c3ccco3)CC2)cc1 (centres undefined)	0.9	-3.7
6.2	0.663	-1.0	67.6	i	Nc1c(N2CCCC2)c2ccccc2oc1=O	-0.5	0.8
1.9	x	-4.1	-0.7	x	CCOc1ccc(C(=O)Nc2ccc(NC(=O)c3cccs3)cc2)cc1[N+](=O)[O-]	1.6	-3.2
-1.5	0.702	0.7	7.5	i	CCCCN1CCC(COC(=O)c2cc(Cl)c(N)c3c2OCCO3)CC1	-10.9	6.1
2.1	0.705	2.3	x	x	CCCN(CCC)CCNC(=O)C(NS(=O)(=O)c1ccc2c(c1)CCC(=O)N2)c1ccccc1 (centres undefined)	-0.8	-3.1
4.5	0.684	-1.7	-3.1	i	Cc1c(C(=O)N2CCNCC2)oc2ccccc12	-10.5	4.7
x	x	-0.6	-1.9	i	CSc1ccc(/C=N/NC(=O)c2cccs2)cc1	0.8	-4.6
3.8	0.711	1.0	2.2	i	Cc1cccc2c(N=O)c(O)n(CCc3ccccc3)c12	5.7	0.7
1.9	0.72	-1.6	10.0	i	Cc1ccc2c(c1)C1CN(C)CCC1N2CC(=O)N(C)c1ccccc1 (centres undefined)	4.5	-2.3
5.9	0.708	0.8	-8.1	x	O=C(c1ccccc1)c1c[nH]c(C(=O)NCCCN2CCOCC2)c1	-13.7	0.4
2.7	x	2.5	-2.7	i	CC1(C(=O)N2CC3(CC(c4cccc(NC(=O)CC(c5ccccc5)c5ccccc5)c4)=NO3)C[C@@H]2C(N)=O)CC1 (some centres undefined)	1.7	1.5
1.6	0.664	1.4	0.7	i	Cc1cc(Cl)c(C)c(S(=O)(=O)N2CCN(CC(=O)N3CCOCC3)CC2)c1Cl	-2.3	-6.1
3.0	0.719	-3.5	11.5	x	CN(C)S(=O)(=O)N(CC(=O)Nc1cccc(F)c1)c1ccccc1	0.7	-0.8
-24.3	0.658	60.4*	-0.6	x	Cc1cccc(C(=O)NCCNc2nc3cc(C)c(C)cc3cc2C)c1	2.8	-1.0
4.9	0.703	-6.8	1.7	i	Cc1ccc(NC(=O)CCn2c(=S)oc3ccccc32)cc1F	-3.9	1.8
-3.0	0.65	-0.7	-5.5	i	CCCCn1c(-c2ccc(Br)cc2F)nc2c1c(=O)[nH]c(=O)n2CC(C)C	-3.8	1.8
-1.7	0.681	2.9	24.7	x	CC(=O)C1CCN(Cc2ccccc2)CC1	7.2	-1.3
x	x	0.2	x	i	COc1cccc(C(=O)NCCCc2ccccc2)c1OC	12.2	x
1.1	x	0.7	-9.9	i	O=C(N[C@@H](CO)C(=O)NCc1ccccc1)c1ccc(C(F)(F)F)cc1	-1.9	3.3
2.5	0.675	-4.2	97.2*	x	COc1ccc(S(=O)(=O)n2nc(OC(=O)c3ccco3)cc2N)cc1	1.9	-2.3
x	x	1.0	-2.2	i	CCOC(=O)N1CCN(C(=O)c2ccccc2NC(=O)COc2ccccc2)CC1	14.2	-4.7
3.1	0.683	1.4	-3.6	i	O=S(=O)(c1cccc(Cn2nnc(-c3ccccc3)n2)c1)N1CCOCC1	-6.2	5.7
3.5	0.756	-1.3	-5.7	x	Cc1cc(C)n(Cc2ccccc2Cl)n1	-2.5	-7.2
3.4	0.656	-1.4	-2.4	i	CC(C)(C)c1ccc(-c2nnc(SCC(=O)NC3CCS(=O)(=O)C3)n2N)cc1 (centres undefined)	0.9	-5.7
1.2	0.771	2.8	-3.1	x	CCCNC(=O)c1ccc(N2CCC3(CC2)CC(c2ccccc2)=NO3)c(NC(=O)c2ccccc2)c1	-1.9	0.3
3.3	0.694	-3.4	-7.6	i	CCN(CC)S(=O)(=O)c1ccc(OC)c(NC(=O)CCS(=O)(=O)Cc2ccccc2)c1	10.1	-6.1
-7.2	0.696	-0.4	x	i	O=C(COC(=O)c1ccccc1O)NC(=O)NCc1ccccc1	12.7	x
2.9	0.715	0.8	-2.9	i	O=C(NCc1ccc(N2CCCC2=O)cc1)c1cc(COc2c(F)cccc2F)on1	-7.7	0.2
1.2	0.772	1.7	-0.7	x	O=C1CC(N2CCC(O)(c3ccc(Cl)cc3)CC2)C(=O)N1 (centres undefined)	-1.8	-0.5
6.4	0.741	-1.0	-13.0	i	CCOc1ccc(NC(=O)N(C2CCCCC2)C2CCN(C(C)=O)CC2)cc1	1.7	0.9
0.8	0.745	-1.1	-3.6	i	CCOC(=O)C1CCN(S(=O)(=O)c2cn(C)c(C)n2)CC1	6.0	8.2

Given bar-delimited: entries from further up.
molecule | UCH37 DUB inh | Ecoli growth | HNF4A DNA FP | ALR inh | FGF22 binding | Beta2AR agonist | LANA-H2A inh
Cc1cc(C)n(Cc2ccccc2Cl)n1 | 3.5 | 0.756 | -1.3 | -5.7 | x | -2.5 | -7.2
CC(C)(C)c1ccc(-c2nnc(SCC(=O)NC3CCS(=O)(=O)C3)n2N)cc1 (centres undefined) | 3.4 | 0.656 | -1.4 | -2.4 | i | 0.9 | -5.7
